FGF22 binding – FGF22 (human) thermal shift binding. Q9HCT0. recombinant FGF22 thermal shift, SYPRO orange fluorescence; percent of sucrose octasulfate shift, DMSO zero. calls only at 9.99 µM. actives 1.5% (n = 340,000). AID 651658;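 active = melting point raised past a set limit in the mean and every replicate; three in four hits are not shown here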
Target sequence (Q9HCT0 whole entry, looked up): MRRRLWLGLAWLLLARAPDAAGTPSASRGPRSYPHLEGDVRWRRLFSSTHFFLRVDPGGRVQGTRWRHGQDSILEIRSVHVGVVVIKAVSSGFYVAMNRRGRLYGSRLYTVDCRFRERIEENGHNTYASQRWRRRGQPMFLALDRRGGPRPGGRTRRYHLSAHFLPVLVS
AF4-AF9 inh – inhibitors of human MLL-AF4/AF9 interaction | AlphaScreen, biotin-AF4 peptide binding to FLAG-AF9 | inhibition, % at 10 µM | actives 0.47% (n = 350,000) | AID 651704;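 active = every replicate reaching a set inhibition limit, whatever the replicate mean, cut at about 25% in these data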;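 also: 0% = plate neutral control median and 100% = total signal loss; the record names both 10 and 1 µM as test concentration; the first replicate is given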
Target sequence (P42568 whole entry, looked up): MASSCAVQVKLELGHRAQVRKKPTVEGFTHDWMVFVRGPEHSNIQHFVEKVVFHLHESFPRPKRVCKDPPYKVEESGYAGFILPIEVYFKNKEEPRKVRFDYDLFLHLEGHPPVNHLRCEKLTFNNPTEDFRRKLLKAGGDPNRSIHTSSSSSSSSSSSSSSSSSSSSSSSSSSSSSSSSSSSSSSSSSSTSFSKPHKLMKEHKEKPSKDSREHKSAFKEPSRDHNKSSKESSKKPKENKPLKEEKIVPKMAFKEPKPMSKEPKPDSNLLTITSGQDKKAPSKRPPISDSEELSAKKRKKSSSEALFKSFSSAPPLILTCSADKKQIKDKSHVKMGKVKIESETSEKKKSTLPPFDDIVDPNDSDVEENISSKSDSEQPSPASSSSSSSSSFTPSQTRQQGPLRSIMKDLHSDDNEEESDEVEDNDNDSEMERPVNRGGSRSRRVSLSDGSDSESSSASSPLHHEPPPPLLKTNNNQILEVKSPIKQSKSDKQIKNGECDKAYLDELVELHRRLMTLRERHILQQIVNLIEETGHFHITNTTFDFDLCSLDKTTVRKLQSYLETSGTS
Numbers without * were called inactive; i = inactive; + = active, no number. Some of the compounds tested (hit frequency here may not be typical).

SMILES	FGF22 binding	AF4-AF9 inh
O=C(C[C@@H]1C[C@H]2c3cc(NC(=O)Nc4ccc(F)cc4)ccc3O[C@H]2[C@H](CO)O1)NC1CCCC1	i	2.6
C[C@@H]1CN([C@@H](C)CO)C(=O)c2cc(NS(C)(=O)=O)ccc2O[C@@H](C)CCCCO[C@H]1CN(C)S(=O)(=O)c1ccc(F)cc1	i	-0.3
CCCNC(=O)N1CC2(C1)[C@H](c1ccccc1)[C@@H](CO)N2C(=O)c1cccnc1	i	-1.8
O=C(C[C@@H]1CC[C@@H]2[C@H](COC[C@H](O)CN2CCc2ccccc2)O1)N1CCC(Cc2ccccc2)CC1	i	-20
COCC(=O)N1CC(=O)N2[C@H](CO)[C@H](c3ccc(C#CC4CC4)cc3)[C@@H]2C1	i	-3.8
COc1ccc(NC(=O)N(C)C[C@H]2Oc3ccc(NC(=O)Nc4ccc(C(F)(F)F)cc4)cc3CC(=O)N([C@@H](C)CO)C[C@H]2C)cc1	i	0.8
C[C@@H]1CCCCO[C@@H](CN(C)C)[C@H](C)CN([C@H](C)CO)C(=O)c2cc(NC(=O)Nc3ccccc3)ccc2O1	i	1.1
CO[C@H]1CN(C)C(=O)c2ccc(NC(C)=O)cc2OC[C@H](C)N(Cc2cc(F)ccc2F)C[C@H]1C	i	-1.5
O=C(C[C@@H]1C=C[C@@H](NC(=O)Nc2ccccc2F)[C@H](CO)O1)NCc1ccc(F)cc1	i	0.6
C[C@@H]1CN([C@H](C)CO)C(=O)c2cc(-c3cccc(F)c3)cnc2O[C@H]1CN(C)C(=O)C1CCCCC1	i	-1.2
CC(C)NC(=O)Nc1ccc2c(c1)C(=O)N([C@H](C)CO)C[C@H](C)[C@H](CN(C)S(=O)(=O)c1ccc(F)cc1)O2	i	-0.2
O=C(C[C@H]1CC[C@@H](NC(=O)Nc2ccccc2)[C@@H](CO)O1)NCc1ccccn1	i	-0.7
Cc1ccc(S(=O)(=O)NCC[C@H]2CC[C@@H](NS(=O)(=O)c3ccccc3Cl)[C@@H](CO)O2)cc1	i	-1.0
CO[C@H]1CN(C)C(=O)c2ccc(NC(=O)Cc3ccccc3)cc2OC[C@@H](C)N(C(=O)c2ccccc2F)C[C@@H]1C	i	0.3
CO[C@@H]1CN(C)C(=O)c2cc(NC(=O)Nc3ccccc3F)ccc2OC[C@H](C)N(C)C[C@@H]1C	i	-0.6
COc1ccc(S(=O)(=O)N(C)C[C@H]2Oc3ccc(NC(=O)c4ccncc4)cc3CC(=O)N([C@@H](C)CO)C[C@@H]2C)cc1	i	-0.5
C[C@@H]1CN([C@@H](C)CO)C(=O)Cc2cc(NS(C)(=O)=O)ccc2O[C@H]1CN(C)C(=O)NC1CCCCC1	i	-2.0
O=C(C[C@@H]1CC[C@@H]2[C@H](COC[C@@H](O)CN2C(=O)c2ccccc2F)O1)NCc1ccc(Cl)c(Cl)c1	i	-0.6
CCCc1cn(CC[C@@H]2CC[C@@H](NC(=O)Nc3ccccc3F)[C@H](CO)O2)nn1	i	2.6
CC(C)CC#Cc1cnc2c(c1)C(=O)N([C@@H](C)CO)C[C@@H](C)[C@@H](CN(C)C(=O)c1cccnc1)O2	i	-2.6
C[C@@H]1CN([C@H](C)CO)S(=O)(=O)c2ccc(/C=C/c3ccccc3)cc2O[C@H]1CN(C)Cc1cccnc1	i	8.0
Cc1ccc(S(=O)(=O)N(C)C[C@H]2OCCCC[C@H](C)Oc3ccc(NS(=O)(=O)c4ccc(Cl)cc4)cc3C(=O)N([C@@H](C)CO)C[C@@H]2C)cc1	i	-0.5
COc1ccc(CNC(=O)C[C@@H]2C=C[C@@H](NC(=O)c3cccc(F)c3)[C@H](CO)O2)cc1	i	-2.5
C[C@@H]1CN([C@@H](C)CO)C(=O)c2cc(NC(=O)CCCN(C)C)ccc2O[C@@H]1CN(C)C	i	-5.0
Cc1noc(C)c1NC(=O)Nc1ccc2c(c1)C(=O)N([C@H](C)CO)C[C@@H](C)[C@H](CN(C)C)O2	i	-2.7
O=C(NCC1CC1)[C@H]1N[C@H]2c3ccc(-c4ccccc4F)c(=O)n3C[C@H]2[C@@H]1CO	i	-1.5
C[C@@H]1CN([C@@H](C)CO)C(=O)c2cc(NC(=O)Cn3cnnn3)ccc2O[C@H]1CN(C)C(=O)Nc1ccc2c(c1)OCO2	i	-9.3
CCCNC(=O)N1[C@@H]2c3ccc(-c4ccc(F)cc4)c(=O)n3C[C@@H]2[C@@H](CO)[C@@H]1C(=O)N1CCCCC1	i	-5.7
Cc1noc(C)c1NC(=O)Nc1cccc2c1O[C@@H](CN(C)Cc1ccncc1)[C@H](C)CN([C@@H](C)CO)C2=O	i	-1.6
CN1C(=O)c2cc(NC(=O)c3ccc(F)cc3)ccc2OC[C@H]2O[C@H](CC(=O)NCC3CC3)CC[C@H]21	i	-0.1
CC(=O)N(C)C[C@@H]1Oc2cc(C#CCN(C)C)ccc2S(=O)(=O)N([C@@H](C)CO)C[C@H]1C	i	-3.0
C[C@H]1CN([C@@H](C)CO)C(=O)c2cc(C#CCC3CCCC3)cnc2O[C@@H]1CN(C)C(=O)CN(C)C	i	9.3
C[C@H]1CN([C@@H](C)CO)C(=O)c2cccc(NS(C)(=O)=O)c2O[C@@H]1CN(C)S(=O)(=O)c1cccs1	i	2.3
C[C@@H]1CCCCO[C@@H](CN(C)S(=O)(=O)c2cccs2)[C@H](C)CN([C@@H](C)CO)C(=O)c2cc(NS(=O)(=O)c3cccs3)ccc2O1	i	0.2
C[C@H](CO)N1C[C@H](C)[C@H](CN(C)Cc2ccc(C(=O)O)cc2)Oc2ccc(NC(=O)Cn3cnnn3)cc2C1=O	i	-2.8
C[C@@H]1CN([C@@H](C)CO)C(=O)c2cc(NS(=O)(=O)c3cccs3)ccc2O[C@@H](C)CCCCO[C@@H]1CN(C)C	i	1.7
CCCNC(=O)N1CC2(CN(Cc3cccc(F)c3)C2)c2c([nH]c3cc(OC)ccc23)[C@H]1CO	i	26*
CNC[C@H]1Oc2ccc(NS(=O)(=O)c3ccc(Cl)cc3)cc2CC(=O)N([C@@H](C)CO)C[C@H]1C	i	-3.9
COc1cccc(C(=O)Nc2ccc3c(c2)C(=O)N(C)C[C@H](OC)[C@@H](C)CN(C(C)=O)[C@@H](C)CO3)c1	i	-2.4
C[C@@H]1CN([C@H](C)CO)C(=O)c2cc(NC(=O)c3ccncc3)ccc2O[C@H]1CN(C)S(=O)(=O)c1cn(C)cn1	i	-3.0
COc1ccccc1NC(=O)N1C[C@H](O)COC[C@@H]2O[C@H](CC(=O)N3CCC(Cc4ccccc4)CC3)CC[C@H]21	i	2.1
C[C@H](CO)N1C[C@H](C)[C@H](CN(C)CC2CCOCC2)Oc2ncc(Br)cc2C1=O	i	-1.7
C[C@H](CO)N1C[C@H](C)[C@@H](CN(C)C(=O)C2CCOCC2)Oc2ncc(-c3cccc(F)c3)cc2C1=O	i	-4.8
COc1ccc(NC(=O)N(C)C[C@H]2Oc3ccc(NC(=O)CCN4CCOCC4)cc3CC(=O)N([C@H](C)CO)C[C@H]2C)cc1	i	-2.4
O=C(NCc1ccccc1)[C@H]1CCCN1C(=O)[C@H]1CCCN1C(=O)c1ccc(F)c(F)c1	i	-3.8
C[C@@H]1CN([C@@H](C)CO)C(=O)c2ccccc2-c2ccccc2CO[C@H]1CN(C)S(=O)(=O)c1ccccc1	i	9.8
Cc1noc(C)c1NC(=O)Nc1ccc2c(c1)C(=O)N([C@H](C)CO)C[C@@H](C)[C@H](CN(C)S(=O)(=O)c1c(C)noc1C)OCCCC[C@H](C)O2	i	-3.2
COc1ccc(S(=O)(=O)N[C@@H]2C=C[C@H](CC(=O)NCCc3ccccc3)O[C@@H]2CO)cc1	+	-2.8
COc1cccc(-c2cnc3c(c2)C(=O)N([C@H](C)CO)C[C@@H](C)[C@H](CN(C)C(=O)CN(C)C)O3)c1	i	-9.4
C[C@@H]1CN([C@H](C)CO)C(=O)c2cccc(NC(=O)Nc3ccc(F)cc3)c2O[C@H]1CN(C)S(=O)(=O)c1ccccc1	i	0.3
C[C@H]1CN([C@@H](C)CO)S(=O)(=O)c2ccc(-c3ccc(F)cc3)cc2O[C@@H]1CN(C)C(=O)C1CCCCC1	i	4.5
C[C@H](CO)N1C[C@H](C)[C@H](CN(C)C(=O)CN(C)C)Oc2cc(C3=CCCCC3)ccc2S1(=O)=O	i	-3.2
C[C@@H]1CN([C@@H](C)CO)C(=O)c2cc(C#C[C@@H](C)O)cnc2O[C@@H]1CN(C)Cc1ccccn1	i	-1.4
Cc1ccc(-c2ccc3c(c2)O[C@@H](CN(C)Cc2cccnc2)[C@H](C)CN([C@H](C)CO)S3(=O)=O)cc1	i	5.7
C[C@@H]1CN([C@@H](C)CO)C(=O)c2cc(C3=CCCCC3)cnc2O[C@@H]1CN(C)C(=O)Cc1cccnc1	i	-2.1
O=C(NC[C@H]1[C@H](c2ccccc2)[C@H](CO)N1CC1CCCC1)c1ccccc1	i	0.0
CNC(=O)C[C@@H]1CC[C@H]2[C@@H](COC[C@H](O)CN2C(=O)c2ccccn2)O1	i	-10
CO[C@@H]1CN(C)C(=O)c2cc(NC(=O)Cc3ccccc3)ccc2OC[C@@H](C)N(C(=O)c2ccccc2F)C[C@@H]1C	i	0.3
C[C@@H]1CCCCO[C@H](CN(C)S(=O)(=O)c2cn(C)cn2)[C@@H](C)CN([C@@H](C)CO)C(=O)c2cc(NC(=O)CCC(F)(F)F)ccc2O1	i	-0.4
COc1cccc(C#Cc2ccc3c(c2)O[C@H](CN(C)C(=O)c2ccccn2)[C@@H](C)CN([C@@H](C)CO)S3(=O)=O)c1	i	1.9

Continuation.
SMILES	FGF22 binding	AF4-AF9 inh
C[C@H]1CN([C@@H](C)CO)C(=O)c2cc(C#CC3CC3)cnc2O[C@H]1CN(C)Cc1ccncc1	i	-0.7
COc1cccc(S(=O)(=O)Nc2ccc3c(c2)[C@H]2C[C@@H](CC(=O)NCc4cccc(F)c4)O[C@@H](CO)[C@H]2O3)c1	i	3.3
CCS(=O)(=O)Nc1ccc2c(c1)C(=O)N(C)[C@@H]1CC[C@H](CC(=O)NC)O[C@H]1CO2	i	-0.3
Cc1noc(C)c1S(=O)(=O)Nc1ccc2c(c1)C(=O)N([C@H](C)CO)C[C@@H](C)[C@@H](CN(C)S(=O)(=O)c1cn(C)cn1)OCCCC[C@H](C)O2	i	-0.1
COc1ccc(C[C@@H]2CCc3cnnn3COC[C@@H](c3ccccc3)NC2=O)cc1	i	0.7
CCNC(=O)C[C@@H]1CC[C@@H](NS(=O)(=O)c2ccc(C)cc2)[C@H](CO)O1	i	0.4
O=C(C[C@@H]1C=C[C@@H](NC(=O)C2CC2)[C@H](CO)O1)NCCCN1CCOCC1	i	-20
C[C@@H]1CN([C@@H](C)CO)C(=O)c2cccc(NC(=O)C3CC3)c2O[C@@H]1CN(C)C(=O)Nc1ccccc1	i	-0.9
CCS(=O)(=O)N1CC2(C1)[C@@H](c1ccccc1)[C@@H](CO)N2Cc1ccccn1	i	-2.2
C[C@@H]1CN([C@H](C)CO)C(=O)c2cc(NS(=O)(=O)c3cn(C)cn3)ccc2O[C@@H](C)CCCCO[C@H]1CN(C)S(=O)(=O)c1ccc(Cl)cc1	i	5.3
O=C(C[C@H]1CC[C@H]2[C@@H](COC[C@H](O)CN2Cc2ccccc2)O1)N1CCOCC1	i	-3.5
C[C@H]1CN([C@@H](C)CO)C(=O)c2cccc(NC(=O)c3ccc(-c4nccs4)cc3)c2O[C@H]1CN(C)C(=O)Nc1ccc(F)cc1	i	-7.4

5 compounds drawn at random from those above:
SMILES	FGF22 binding	AF4-AF9 inh
CCS(=O)(=O)Nc1ccc2c(c1)C(=O)N(C)[C@@H]1CC[C@H](CC(=O)NC)O[C@H]1CO2	i	-0.3
CCNC(=O)C[C@@H]1CC[C@@H](NS(=O)(=O)c2ccc(C)cc2)[C@H](CO)O1	i	0.4
COc1cccc(S(=O)(=O)Nc2ccc3c(c2)[C@H]2C[C@@H](CC(=O)NCc4cccc(F)c4)O[C@@H](CO)[C@H]2O3)c1	i	3.3
C[C@H]1CN([C@@H](C)CO)C(=O)c2cccc(NC(=O)c3ccc(-c4nccs4)cc3)c2O[C@H]1CN(C)C(=O)Nc1ccc(F)cc1	i	-7.4
C[C@@H]1CN([C@H](C)CO)C(=O)c2cc(NS(=O)(=O)c3cn(C)cn3)ccc2O[C@@H](C)CCCCO[C@H]1CN(C)S(=O)(=O)c1ccc(Cl)cc1	i	5.3

Next results
SMILES	FGF22 binding	AF4-AF9 inh
Cc1ccc(S(=O)(=O)N(C)C[C@H]2OCCCC[C@H](C)Oc3ccc(NC(=O)c4ccccc4)cc3C(=O)N([C@H](C)CO)C[C@H]2C)cc1	i	-0.5
C[C@H](CO)N1C[C@H](C)[C@H](CN(C)C(=O)Nc2cccc3ccccc23)Oc2ccc(NC(=O)Nc3ccc4c(c3)OCO4)cc2C1=O	i	3.6
Cc1noc(C)c1S(=O)(=O)N(C)C[C@@H]1OCCCC[C@H](C)Oc2ccc(NC(=O)NC3CCCCC3)cc2C(=O)N([C@H](C)CO)C[C@H]1C	i	-0.5
CCCNC(=O)Nc1ccc2c(c1)C(=O)N(C)[C@H]1CC[C@H](CC(=O)Nc3cccc(F)c3)O[C@@H]1CO2	i	-14

Record cards, as listed above.
CO[C@H]1CN(C)C(=O)c2ccc(NC(C)=O)cc2OC[C@H](C)N(Cc2cc(F)ccc2F)C[C@H]1C in the list: FGF22 binding = i; AF4-AF9 inh = -1.5
COc1ccc(CNC(=O)C[C@@H]2C=C[C@@H](NC(=O)c3cccc(F)c3)[C@H](CO)O2)cc1 in the list: FGF22 binding = i; AF4-AF9 inh = -2.5
C[C@H](CO)N1C[C@H](C)[C@@H](CN(C)C(=O)C2CCOCC2)Oc2ncc(-c3cccc(F)c3)cc2C1=O in the list: FGF22 binding = i; AF4-AF9 inh = -4.8

High-throughput results as filed in PubChem.
